hNpr1 antagonist – Natriuretic polypeptide receptor (hNpr1) antagonism - Primary qHTS. AID 1347048, 2019. HEK293 hNpr1 GloSensor cGMP, ANP-stimulated luminescence. Potency, µM (titrated, usually from 46.3 µM), without a hit: top-dose activity change, negative = inhibition, usual class: inhibitors. Atrial natriuretic peptide receptor 1 (Homo sapiens), P16066. 76,000 compounds, 1.6% hits; active = well fitted inhibition curve with a large enough effect; inconclusive = small, poorly fitted or top-dose-only effect; inactive = no such curve, though single readings can be large or run the other way;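 further: nearly all actives have a fitted effect of over 60% in size; nearly all hits also lower the signal before the agonist is added; a reference antagonist and vehicle were the controls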
Target sequence (P16066 whole entry, looked up): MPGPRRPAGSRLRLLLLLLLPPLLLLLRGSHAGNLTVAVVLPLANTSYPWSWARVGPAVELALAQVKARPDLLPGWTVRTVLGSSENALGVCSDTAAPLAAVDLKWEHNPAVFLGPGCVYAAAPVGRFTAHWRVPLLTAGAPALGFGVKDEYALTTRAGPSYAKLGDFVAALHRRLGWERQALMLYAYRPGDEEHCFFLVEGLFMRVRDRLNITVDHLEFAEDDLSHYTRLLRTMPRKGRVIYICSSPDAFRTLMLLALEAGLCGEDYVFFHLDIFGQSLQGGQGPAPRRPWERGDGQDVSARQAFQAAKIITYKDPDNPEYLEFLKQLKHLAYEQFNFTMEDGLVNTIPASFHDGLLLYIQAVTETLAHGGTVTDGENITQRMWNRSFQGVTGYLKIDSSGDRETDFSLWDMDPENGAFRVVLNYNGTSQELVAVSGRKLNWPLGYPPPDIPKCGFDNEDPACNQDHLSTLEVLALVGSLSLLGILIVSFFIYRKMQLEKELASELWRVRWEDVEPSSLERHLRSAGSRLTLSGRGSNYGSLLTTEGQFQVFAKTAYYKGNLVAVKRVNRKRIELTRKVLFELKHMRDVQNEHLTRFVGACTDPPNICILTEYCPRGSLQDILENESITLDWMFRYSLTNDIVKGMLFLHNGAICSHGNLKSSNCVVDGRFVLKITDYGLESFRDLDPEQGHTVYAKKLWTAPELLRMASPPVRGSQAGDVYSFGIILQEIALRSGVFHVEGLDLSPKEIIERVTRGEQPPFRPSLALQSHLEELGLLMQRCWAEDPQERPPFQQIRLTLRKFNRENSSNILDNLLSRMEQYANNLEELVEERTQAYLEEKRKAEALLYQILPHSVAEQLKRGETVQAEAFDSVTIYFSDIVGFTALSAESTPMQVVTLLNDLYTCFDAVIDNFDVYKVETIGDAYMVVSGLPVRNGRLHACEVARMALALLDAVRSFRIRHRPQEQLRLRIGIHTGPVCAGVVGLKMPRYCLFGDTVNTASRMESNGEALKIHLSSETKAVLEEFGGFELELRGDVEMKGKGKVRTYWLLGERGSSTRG
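Compound pre-incubated 30 min at room temperature on GloSensor-loaded HEK293 cells stably carrying hNpr1 and the pGS-40F cGMP biosensor. Stimulation uses hNppA at 0.1 nM final; luminescence is taken at baseline and 20 min post-agonist.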
* marks the source's active call; other numbers are inactive results; ? = inconclusive; & = joins results of further samples; [ ] = dose if it differs, or a comment. On the % scale 0 is the no-effect control and ±100 the full control effect; potency means the concentration at half of the fitted maximal effect. The list is partial, so the mix of outcomes need not match the whole.

SMILES | hNpr1 antagonist
CNC(=O)CCn1ncc2cc(OC3CCc4cccc(-c5ccc(OC)cc5)c43)ccc21 (stereo unspecified) | -19%[70.6 µM]
Cc1noc(C)c1[S+](=O)([O-])N1CCn2c(nnc2C2CCCNC2)C1 (stereo unspecified) | 17%
COc1cccc(CC(=O)N2CCC3(CC2)CC(O)CCO3)c1 (stereo unspecified) | -4%
Cc1noc([C@@H]2C[C@H](NC(=O)C3CCCCC3)CN2C)n1 | -1%[70.6 µM]
CC[C@H]1CN(C(=O)C(C)(C)C)CC[C@H]1CC(=O)NCc1ccc(F)cc1 | 2%[70.6 µM]
COc1ccc(C(=O)N2C[C@@H]3C[C@H](C2)c2ccc(NS(=O)(=O)c4ccc(OC)cc4)c(=O)n2C3)cc1 | 1%
O=C(Cn1cccc1-c1nc(-c2ccccc2)no1)NCc1ccc(Cl)cc1 | -1%
CN1C(=O)N(CCc2ccccc2)C(=O)C12CCN(Cc1cccn1-c1ccccn1)CC2 | -8%
COc1ccc(Nc2cnc3ccc(-c4ccc(OC)c(OC)c4)nn23)cc1OC | -4%[70.6 µM]
CNc1nc2c(s1)C(c1ccc(Cl)cc1)CC(=O)N2 (stereo unspecified) | -19%
COCCc1noc(-c2nnn3c2COC(c2ccc(OC)cc2)C3)n1 (stereo unspecified) | -2%
Cc1cc(S(=O)(=O)N[C@@H]2CCOC[C@H]2Oc2ccccn2)c(C)s1 | -15%
O=C(CC[C@@H]1CNC(=O)[C@@H]2C[C@H](NCc3ccccc3)CN12)NCc1ccccc1 | 1%[70.6 µM]
Cc1nc(C2CCCCN2)n[nH]1 (stereo unspecified) | 0%
Cc1cccc(CN2CCCC(C(=O)O)CCNC(=O)CC2)c1 (stereo unspecified) | -11%
NC(=O)[C@H](Cc1cccs1)NC(=O)[C@@H]1[C@@H](NC(=O)Nc2ccc(F)cc2F)CCN1C(=O)c1cnccn1 | 3%
CCCN(CC1CCCO1)C(=O)c1csc2nc(-c3cccc(C(F)(F)F)c3)cn12 (stereo unspecified) | 8%
c1ccc(Cn2nc(Cn3cncn3)nc2C2CCCCn3nnnc32)cc1 (stereo unspecified) | 1%
O=c1cc(CN2CCCCC2c2ccccn2)[nH]c2ccc(F)cc12 (stereo unspecified) | 1%
CCOc1cc(-c2nc(C3CC(=O)N(c4ccc(F)c(Cl)c4)C3)no2)cc(OCC)c1OCC (stereo unspecified) | -3%
O=C(Nc1ccc2c(c1)OCCO2)N[C@@H]1C[C@H](CO)[C@@H](O)[C@H]1O | 2%[70.6 µM]
CCOc1ccc(NC(=O)Cn2nc3n(c2=O)CCCC3)cc1 | 3%
CN(CCC(C)(C)O)c1ccc(C(=O)N2CCCCC2CCn2cccn2)cn1 (stereo unspecified) | 0%
CCOc1cc(C(=O)NC2CCN(c3cc(-c4cccs4)[nH]n3)C2)cc(OCC)c1OCC (stereo unspecified) | -4%
CCn1ncc(N2CCCC(CC(=O)NCc3ccccc3OC)C2)cc1=O (stereo unspecified) | -1%
O=C1CCCCC(CNC(=O)c2cccc(F)c2)N1 (stereo unspecified) | 6%
O=C(Cn1nc2c(cc1=O)CCCCC2)Nc1nc2c(s1)CCCC2 | -6%
COc1ccc(CC(=O)N[C@H]2[C@H](O)[C@H](O)C[C@@H]2c2ccc(C(F)(F)F)cc2)cc1 | 2%[70.6 µM]
COc1ccccc1CNC(=O)C1CCN(c2cn[nH]c(=O)c2)C1 (stereo unspecified) | 4%
CCn1ncc(N2CCC(NC(=O)CC(C)C)CC2)cc1=O | 3%
CC(C)(C)CN1CCOC[C@H]1c1ncc(-c2ccc(S(C)(=O)=O)cc2)[nH]1 | 0%[70.6 µM]
COc1ccc(OCc2cc(C(=O)N3CCN(CC4CC4)CC3)n[nH]2)c(Cl)c1 | 3%
CC(C)(C(=O)O)c1cnc(N2CCC(O)(CO)CC2)nc1N1CCOCC1 | -2%
CC(C)c1ccc(N2CC(C(=O)N(C)Cc3cc(C(C)C)on3)CC2=O)cc1 (stereo unspecified) | 4%
CC(C)CCO[C@H]1COCCN(C(=O)c2ccccc2)C1 | -3%[70.6 µM]
COc1ccc(CNc2cc3c(cn2)CN(Cc2ccccc2)CCN3)cc1OC | 0%[70.6 µM]
C=CCS(=O)(=O)N1C[C@H]2OC(=O)N(CCc3cccc(Cl)c3)[C@H]2C1 | -4%
COCCC1(C(=O)O)CCCN(C(=O)CN(C)Cc2ccncc2)C1 (stereo unspecified) | -7%
CN1C[C@H](NCc2ccc(C(F)(F)F)cc2)CCC[C@@H](C(=O)NC2CC2)CC1=O | -4%[70.6 µM]
COCCNC[C@@H]1C=C(C)[C@H](Cc2nnc(-c3ccc(OC)cc3)o2)C[C@H]1C(C)C | 1%[70.6 µM]
COc1ccc(-c2cc(N3CCC(NC(=O)c4cccnc4)C3)n[nH]2)cc1 (stereo unspecified) | 1%
COCc1ccc2c(c1)c(OC(C)(C)C(=O)NCCCn1ccnc1)nn2CCC(C)C | 0%
COc1cccc(-c2cc3c(=O)n(CCNC(=O)C4CCN(C(C)=O)CC4)ccn3n2)c1 | 6%
COC1C(=O)N(C2CCN(C(=O)c3ccco3)CC2)C12CCOCC2 (stereo unspecified) | 3%
O=C1c2c(nc(CNc3ccc(F)cc3)n2Cc2ccccc2)NCCN1CC1CC1 | -20%[70.6 µM]
O=C(NCc1ccccc1)c1ccnc(-c2nnc3ccc(N4CCOCC4)nn23)c1 | 1%[70.6 µM]
Cc1cc(N2CCN(CC3(O)CNCCOC3)CC2)n2ncnc2n1 (stereo unspecified) | -2%
Cc1nc(-c2cccc(Cl)c2)n(Cc2nc(-c3ccc(OC(C)C)cc3)oc2C)c(=O)c1CCO | 3%
COc1ccc(C(=O)N2C[C@@H](F)C[C@H]2C(=O)N2CCCCC2)c(OC)c1 | -1%
O=c1cc(-c2ccncc2)oc2c(-c3cccc(CO)c3)nccc12 | 5%[70.6 µM]
O=C(NC1CCOC2(CCOCC2)C1)c1cnc2c(O)cccn2c1=O (stereo unspecified) | -3%
CCC(=O)N1CCC(N(C(=O)CC)C2CCOCC2)CC1 | -8%
CC(=O)N1CCN(C(=O)c2cnc(N)nc2-c2ccccc2)CC(O)C1 (stereo unspecified) | 4%
CSc1ccccc1CN1CCC2(CC1)C(C(=O)O)CC(=O)N2C (stereo unspecified) | 9%
Cc1cccc(OCC(=O)N2C[C@@H](CO)[C@H](c3nc(C4CC4)no3)C2)c1 | 3%
COCc1nc(-c2ccc(OC3CNC3)cc2)no1 | -1%
CCc1nc2c(c(-c3ccc(Cl)cc3)n1)CN(Cc1ccc(C(F)(F)F)cc1)CC2 | 3%
COc1cc(-c2cnc3n[nH]c(-c4ccc(F)cc4C)c3n2)ccn1 | -5%[70.6 µM]
O=C(Cn1ccn2nc(-c3ccccc3)c(CO)c2c1=O)N1CCc2ccccc21 | -12%
COc1ccc(CN2CCc3ncc(C(=O)NCCOc4ccccc4)n3CC2)cn1 | -2%[70.6 µM]

Entries shown so far with a tert-butyl group (two):
SMILES | hNpr1 antagonist
CC[C@H]1CN(C(=O)C(C)(C)C)CC[C@H]1CC(=O)NCc1ccc(F)cc1 | 2%[70.6 µM]
CC(C)(C)CN1CCOC[C@H]1c1ncc(-c2ccc(S(C)(=O)=O)cc2)[nH]1 | 0%[70.6 µM]

Going on with the list.
mol	hNpr1 antagonist
O=C(NC1CCCN(c2cc(-c3ccc(F)cc3)[nH]n2)C1)c1ccsc1 (stereo unspecified)	-19%
O=C(c1cccnc1)N1CCC(OC2CCN(Cc3ccccc3)CC2)CC1	1%
COc1ccc(C(=O)N2CCC(N3CCCNC3=O)CC2)cc1	0%&9%[70.6 µM]
COCCNC(=O)CCc1cc2ccc(C)cc2[nH]c1=O	-5%
Cc1ccc(S(=O)(=O)N2CCC(n3cnnc3C3CC3)CC2)cc1Cl	-29%
O=C(NCCCN1CCOCC1)c1ccc(N2CC3CC(C2)[C@H]2CCCC(=O)N2C3)nc1 (stereo partly specified)	7%
O=C(c1cccc(F)c1)N1CCOC[C@H](Oc2cccnc2)C1	4%[70.6 µM]
Cc1ccc(C2Cn3nnc(C(=O)N4CCC(C(=O)NCc5ccccc5Cl)CC4)c3CO2)cc1 (stereo unspecified)	4%
O=C(c1cc(F)cc(F)c1)N1C[C@@H](CO)[C@H](c2nc(C3CC3)no2)C1	-2%
CC(CCNC(=O)c1cc(S(N)(=O)=O)ccc1F)N1CCN(C)CC1 (stereo unspecified)	-1%
Cc1noc([C@H]2CCN(C(=O)Nc3ccccc3F)C[C@H]2NC(=O)C2CC2)n1	5%
Cc1ccoc1C(=O)N1CC[C@@H]2CN(S(C)(=O)=O)[C@@H]2C1	2%
CCS(=O)(=O)N1CCCC(c2nc(-c3ccccc3)no2)CCNC(=O)CC1 (stereo unspecified)	4%
CC(O)CNS(=O)(=O)c1cccc(C(=O)Nc2cccc3c2CCC3)c1 (stereo unspecified)	7%
CCN(CCc1nc2ccc(C)cc2[nH]1)C(=O)c1ccccc1C1CCNC1 (stereo unspecified)	6%
CCOc1ccccc1CN1CCC2(CCN(C(=O)c3ccccc3C)CC2)Oc2ccccc21	-30%
COC(=O)C1=C(C)N=C2SC=C(CC(=O)NCC3CCCO3)N2C1c1cc(OC)ccc1OC (stereo unspecified)	-4%
COc1ccc2oc(CNC(=O)C3CCN(CC(N)=O)CC3)nc2c1	-1%
CNC(=O)C1(N2CCC[C@H]2C(=O)NCC2CC2)COC1	-2%[70.6 µM]
CC(C)Cc1nc2ccc(NC(=O)C[C@H]3NC(=O)c4ccccc4NC3=O)cc2[nH]1	0%
CC(=O)NC1(C)CCN(Cc2ccc(-c3ccc(N4CCOCC4)cc3)cc2)C1 (stereo unspecified)	-14%[70.6 µM]
CC(C)(C)C(=O)N1CCCC(c2nn(-c3ccc(F)cc3)c(=O)[nH]2)C1 (stereo unspecified)	1%
CN(C)CCNC(=O)c1n[nH]c2c1CN(C(=O)c1ccc(F)cc1F)CC2	5%
COc1ccc(CC(=O)N2CC3(Cc4ccccc4N(C(C)=O)C3)C2)cc1	1%
CCC1(O)CCC12CCN(C(=O)c1cnccc1C)CC2 (stereo unspecified)	-6%
COCC(=O)N1CCc2nc(-c3ccccc3)nc(-c3ccc(Cl)cc3)c2C1	-19%
Cc1nc(C)c(C(=O)N2CCOCC(O)(CN3CCCC3)C2)s1 (stereo unspecified)	-10%
Cc1cccc(C(=O)N2C[C@@H](Oc3ccccc3)C[C@H]2C(=O)NC2CC2)c1	-5%
CN(C)CCN1CC2(CCCN(C(=O)CCCn3cnnn3)C2)CCC1=O (stereo unspecified)	0%
CN(CC1CCOC1)S(=O)(=O)Cc1ccccc1Cl (stereo unspecified)	-4%
CC1(C(=O)N2CCc3ccccc32)CCCCC(=O)N1 (stereo unspecified)	-1%
COc1ccccc1OCCNC(=O)CC1=C2CCCCC2NC1=O (stereo unspecified)	2%
O=C([C@@H]1C[C@H](Oc2cccnc2)CN1C(=O)CCc1ccccc1)N1CCCC1	1%
COc1ccc(-c2cnc3[nH]cc(CC(N)=O)c3c2)cc1OC	-2%[70.6 µM]
CCOc1cc(=O)n2c(c1C(=O)Nc1cc(Cl)c(OC)cc1OC)CCCC2	-13%
CCN(CC)C(=O)C(C)[C@@H]1CC[C@@]2(C)CC[C@H](NC(=O)c3cccc(F)c3)[C@@H](C)[C@@H]2[C@H]1O (stereo partly specified)	-2%
COCC(=O)N1CCn2c(nnc2-c2ccccc2)C1	2%[70.6 µM]
COC[C@H]1CCCN1C(=O)[C@@H](C)C1CC[C@@]2(C)CC[C@H](NC(=O)Cc3ccccc3)[C@@H](C)[C@@H]2[C@H]1O (stereo partly specified)	-9%
Cc1nsc(NC(=O)N2CCCC2C)n1 (stereo unspecified)	1%
COc1ccccc1-c1ccnc(N[C@H]2CO[C@H]3[C@@H]2OC[C@@H]3NS(C)(=O)=O)n1	1%[70.6 µM]

Among those listed so far, these contain a furan ring, fused or not.
mol	hNpr1 antagonist
COC1C(=O)N(C2CCN(C(=O)c3ccco3)CC2)C12CCOCC2 (stereo unspecified)	3%
Cc1ccoc1C(=O)N1CC[C@@H]2CN(S(C)(=O)=O)[C@@H]2C1	2%

Next results
mol	hNpr1 antagonist
O=S(=O)(N[C@@H]1CCOC[C@H]1O)c1ccc(Oc2ccccc2)cc1	?
COCCC(=O)N1CCC(N2C(=O)C(OCC3CC3)C23CCOCC3)CC1 (stereo unspecified)	1%
Cn1cc(CN2CCC(C(O)c3cccnc3)CC2)c(-c2ccc(C3CCCCC3)cc2)n1 (stereo unspecified)	6%
Cc1cc(NC(=O)Cn2cccc2-c2nc(-c3ccc4c(c3)OCO4)no2)n[nH]1	-2%
COc1ccc(-c2cc(N3CCCC(NC(=O)Cc4ccc(OC)c(OC)c4)C3)n[nH]2)cc1 (stereo unspecified)	?
N#Cc1cccc(C(=O)N2CCCC(c3nccn3Cc3ccccc3)C2)c1 (stereo unspecified)	9%
CC(C)NC(=O)CCC1CCN(C(=O)c2ccccc2F)CC1	0%
CCCn1cc(S(=O)(=O)N[C@@H]2COCC[C@@H]2OCC2CCC2)cn1	1%

Exported with each value named: 3 of the compounds above
> N#Cc1cccc(C(=O)N2CCCC(c3nccn3Cc3ccccc3)C2)c1 (stereo unspecified)
  hNpr1 antagonist: 9%
> CC(C)NC(=O)CCC1CCN(C(=O)c2ccccc2F)CC1
  hNpr1 antagonist: 0%
> CCCn1cc(S(=O)(=O)N[C@@H]2COCC[C@@H]2OCC2CCC2)cn1
  hNpr1 antagonist: 1%

Screens from PubChem BioAssay.
